Compound activity deposited in PubChem by National Center for Advancing Translational Sciences (NCATS).
TSHR agonist: TSH receptor (human) agonism | AID 926 | hit rate 0.48% among 73,000 | HEK293-CNG-TSHR cells (CNG channel as cAMP sensor), membrane potential dye, cAMP | Potency, µM (top dose mostly 57.1 µM), without a hit: at the top dose activation, actives largely listed as activators | P16473; active = well fitted activation curve of enough size with the parental cells flat; inconclusive = any curve in the parental cells; inactive = parental cells flat and receptor cells flat or falling; note: potency is the fitted concentration of half-maximal effect; % of control where 0% means no effect; weak receptor curves with flat parental cells got no call and are not listed
Target sequence (P16473 whole entry, looked up): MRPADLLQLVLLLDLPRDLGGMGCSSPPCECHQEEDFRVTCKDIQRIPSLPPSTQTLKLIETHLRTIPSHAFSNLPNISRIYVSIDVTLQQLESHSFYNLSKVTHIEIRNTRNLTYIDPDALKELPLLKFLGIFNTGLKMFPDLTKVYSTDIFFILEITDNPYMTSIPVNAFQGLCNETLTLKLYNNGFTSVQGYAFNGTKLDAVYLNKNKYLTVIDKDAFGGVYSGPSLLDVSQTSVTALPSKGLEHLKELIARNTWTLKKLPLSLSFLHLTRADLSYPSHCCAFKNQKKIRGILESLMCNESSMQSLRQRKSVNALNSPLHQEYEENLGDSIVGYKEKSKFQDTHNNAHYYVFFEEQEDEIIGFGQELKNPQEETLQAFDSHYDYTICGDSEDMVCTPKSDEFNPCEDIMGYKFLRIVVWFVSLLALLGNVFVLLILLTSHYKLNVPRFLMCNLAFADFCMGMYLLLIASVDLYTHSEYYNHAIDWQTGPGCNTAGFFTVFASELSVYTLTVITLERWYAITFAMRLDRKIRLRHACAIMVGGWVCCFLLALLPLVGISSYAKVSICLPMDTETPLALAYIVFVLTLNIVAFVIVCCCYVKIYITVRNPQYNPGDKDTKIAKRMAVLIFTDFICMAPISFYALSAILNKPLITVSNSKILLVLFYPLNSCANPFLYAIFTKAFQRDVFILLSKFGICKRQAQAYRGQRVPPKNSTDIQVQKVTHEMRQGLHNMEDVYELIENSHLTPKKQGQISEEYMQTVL
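HEK 293 cells stably expressing TSHR and a cAMP-gated CNG channel; parental CNG-only cells as counterscreen. Cells preloaded 60 min with membrane potential dye plus 100 uM RO 20-1724, then compound 30 min; fluorescence read at 590 nm.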
A647 autofl: compound fluoresces in the A647 spectral region; Compound fluorescence, A647 channel (570/671 nm), Tris buffer; max dye-equivalent concentration, M; 59,000 tested, under 10 active; active means above 1 µM dye equivalent; inconclusive means 0.1 to 1 µM; inactive means 0.1 µM or less;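 note: values scaled relative to a standard on each plate; highest value over a series up to 38 µM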
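Spectral profiling of library compounds in pH 8.0 Tris: 15 min room-temperature incubation, single ex/em pair (570/671 nm), response normalized to Alexa 647 equivalents.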
A488 fluor: A488 region autofluorescence; AID 591; hit rate 0.1% among 59,000; compound autofluorescence, A488 spectral region, dye equivalency; hits give high values; max dye equivalency, M; active = above 10 nM dye equivalent; inconclusive = 1 to 10 nM; inactive = 1 nM or less; about half of its hits are not listed in these tables;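 note: highest value over a series up to 38 µM; compound alone in buffer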
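Spectroscopic profiling in the A488 region: compounds in pH 8.0 Tris (100 mM), 15 min RT, CCD imaging with 480 nm excitation and 540 nm emission; responses normalized against A488 dye standards.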
AID923: qHTS Assay for Allosteric/Competitive Inhibitors of Caspase-1: Spectroscopic Profiling in AFC Spectral Region; Potency, µM (doses to about 57.5 µM), inactives show at the top dose fluorescence increase, usual class: activators; compound fluorescence, AFC spectral region (405/520 nm); almost no hit is shown here; hit rate 1.1% among 75,000; AID 923, 2007; active = well fitted activation curve with a large enough effect; inconclusive = small, poorly fitted or top-dose-only effect;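 note: potency is the fitted concentration of half-maximal effect; 0% is about no effect; scaled to a free AFC standard on each plate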
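Baseline compound fluorescence (AFC region, 405 nm ex/520 nm em) taken from the intercept of kinetic reads with 50 nM caspase-1 and 5 uM Ac-WEHD-AFC; normalized to an on-plate AFC standard curve; compounds titrated up to 57 uM.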
Resorufin autofl: compounds fluorescent in resorufin spectral region; max dye-equivalent concentration, M; hit rate 0.04% among 59,000; Compound fluorescence, resorufin region 547/598 nm, buffer; hits give high values; active = above 10 nM dye equivalent; inconclusive = 1 to 10 nM; inactive = 1 nM or less; a few of its hits are not listed in these tables; note: highest value over a series up to 38 µM
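Tris 100 mM pH 8.0; compound added, 15 min RT; CCD imager read, ex 547 nm/em 598 nm; signal normalized to resorufin standard curve (six concentrations per plate) as dye-equivalent concentration.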
The depositor's hits bear a star; i = inactive; ? = inconclusive; · = no result given; [ ] = remark or other dose. An excerpt; the hit share may differ from the screen's.

compound | TSHR agonist | A647 autofl | A488 fluor | AID923 | Resorufin autofl
COc1ccc2c3c1OC1C[C@@H](O)C=C[C@@]31CCN(C)C2 (some centres not stated) | -3%[25.6 µM] | 1.6e-08 | i | 2.1% | i
COc1ccc(-c2ocnc2C(=O)Nc2ccccc2N2CCCCC2)cc1 | 6% | 7.2e-09 | i | -1.6% | i
O=C(CCc1nc(-c2ccccc2)no1)Nc1cc(C(F)(F)F)ccc1Cl | ? | 5e-09 | i | -0.1% | i
O=C(c1ccc(CS(=O)(=O)c2ccccc2)o1)N1CCOCC1 | 2% | · | · | 3.7% | ·
COc1cc(NS(=O)(=O)N2CCCC2)cc(OC)c1OC | 14% | 6.1e-08 | i | -2.2% | i
Cn1c(=NCC(O)COc2ccccc2)sc2ccccc21 (configuration not stated) | · | 1e-09 | i | · | i
CS(=O)(=O)N(Cc1ccccc1)c1ccc(C(=O)N2CCOCC2)cc1 | · | 3.1e-08 | i | -0.9% | i
COc1cccc2cc(C(=O)C3=C(O)C(=O)N(CCCN4CCOCC4)C3c3ccncc3)oc12 (configuration not stated) | ? | 1.4e-08 | i | -1.2% | i
CCC(=O)Nc1ccccc1C(=O)N1CCOCC1 | -9% | 1e-09 | i | 0.6% | i
CCN(CC)P(=O)(C(NC(=O)OC)C(F)(F)C(F)(F)C(F)(F)C(F)F)N(CC)CC (configuration not stated) | -2% | 1.5e-08 | i | -2.2% | i
CCN(CC(=O)NC(=O)NCc1ccco1)Cc1nc2ccccc2c(=O)[nH]1 | -4%[11.4 µM] | 3.9e-08 | i | 2.0% | i
CCOc1cccc(C2C(C(=O)c3ccco3)=C(O)C(=O)N2Cc2ccncc2)c1 (configuration not stated) | 8% | 2.3e-08 | i | 0.4% | i
Cc1ccc2nc3c(c(N)c2c1)CCN3c1ccccc1 | ? | 1.9e-08 | i | 3.8% | i
CCSc1nc2sc3c(c2c(=O)n1C1CCCCC1)CCN(C)C3 | · | 2.2e-09 | i | · | i
COc1ccc(-n2c(Cc3cccn3C)nnc2SCC(=O)NCc2ccc(F)cc2)cc1 | -3% | · | · | 0.6% | ·
COc1ccc(Oc2ncc3nc(CCc4ccccc4)c(=O)n(C)c3n2)cc1 | ? | 9.9e-09 | i | 6.1% | i
CCc1ccc(C2CC(=O)N3CN(c4ccccc4)CSC3=C2C#N)cc1 (configuration not stated) | 3% | · | · | 2.4% | ·
CC1Oc2ccccc2N(CC(=O)NCC2CCCO2)C1=O (configuration not stated) | 1% | 1e-09 | i | 0.0% | i
O=C(CSCCO)Nc1ccc(C2CCCCC2)cc1 | -20% | 5.4e-09 | i | -0.2% | i
Cc1noc(C)c1C(=O)N1CCC[C@@]2(CCN(Cc3nccs3)C2)C1 | -4% | 3.1e-09 | i | 1.6% | i
O=C(OCc1nc2ccccc2s1)C1CCN(S(=O)(=O)c2cccs2)CC1 | 9% | 3.2e-08 | i | 1.3% | i
CC(=O)c1cccc(NC(=O)CN2C(=O)NC3(CCCCCCC3)C2=O)c1 | 14% | 1.8e-09 | i | -1.8% | i
Cn1c(C(=O)NC2CCCCC2)cc2c(=O)n(C)c3ccccc3c21 | -1% | · | · | 1.4% | ·
O=C(O)CC(C(=O)Nc1cccc(C(F)(F)F)c1)C1CCCO1 (configuration not stated) | -1% | · | · | -2.1% | ·
CN1CCN(C(=O)c2ccc(Cl)c(S(=O)(=O)N3CCCCC3)c2)CC1 | 16% | · | · | 0.9% | ·
Cc1cnc(CNc2ccnc(-c3ccccc3CN(C)C)n2)cn1 | 5% | 1e-09 | i | 0.7% | i
Cn1c(Cc2ccccc2)nnc1SCC(=O)Nc1ccc2c(c1)OCO2 | ? | 1e-09 | i | -0.1% | i
FC(F)(F)c1nnc2ccc(NCn3nnc4ccccc43)nn12 | -1%[11.4 µM] | 2.4e-08 | i | 1.7% | i
Cn1c(SCC(=O)Nc2ccc(N3CCOCC3)c(Cl)c2)nnc1-c1ccccc1 | -10% | 5e-09 | i | 1.7% | i
CCCCC#Cc1ccccc1CC(=O)Nc1ccccc1 | 4% | · | · | -2.8% | ·

Some of the entries so far, with each value named:
> O=C(CSCCO)Nc1ccc(C2CCCCC2)cc1
  TSHR agonist: -20%
  A647 autofl: 5.4e-09
  A488 fluor: i
  AID923: -0.2%
  Resorufin autofl: i

> Cc1noc(C)c1C(=O)N1CCC[C@@]2(CCN(Cc3nccs3)C2)C1
  TSHR agonist: -4%
  A647 autofl: 3.1e-09
  A488 fluor: i
  AID923: 1.6%
  Resorufin autofl: i

> O=C(OCc1nc2ccccc2s1)C1CCN(S(=O)(=O)c2cccs2)CC1
  TSHR agonist: 9%
  A647 autofl: 3.2e-08
  A488 fluor: i
  AID923: 1.3%
  Resorufin autofl: i

> CC(=O)c1cccc(NC(=O)CN2C(=O)NC3(CCCCCCC3)C2=O)c1
  TSHR agonist: 14%
  A647 autofl: 1.8e-09
  A488 fluor: i
  AID923: -1.8%
  Resorufin autofl: i

Next section:
compound | TSHR agonist | A647 autofl | A488 fluor | AID923 | Resorufin autofl
O=C(Nc1ccc2c(c1)OCO2)C1COc2ccccc2O1 (configuration not stated) | 11% | · | · | -1.9% | ·
Cc1noc(C)c1-c1ccc2ncnc(N(C)Cc3ccco3)c2c1 | ? | 3.5e-09 | i | -0.4% | i
CCCNC(=O)CC(NS(=O)(=O)c1ccc(Cl)cc1)c1ccco1 (configuration not stated) | -5% | 3.3e-08 | i | 0.0% | i
O=C(O)/C=C(/c1ccccc1)C(F)(F)F | -1% | · | · | 1.4% | ·
CCOc1ccc(NC(=O)c2ccc(F)c(S(=O)(=O)N3CCN(c4ccccn4)CC3)c2)cc1 | · | 4.4e-09 | i | -2.0% | i
COCCn1c(NCc2ccccc2)nc2c1c(=O)[nH]c(=O)n2C | -5% | 2.6e-08 | i | -0.5% | i
CCCCc1ccc(S(=O)(=O)NCCc2ccncc2)cc1 | ? | 4e-09 | i | -2.6% | i
O=C(CN1C2CCC1CC(NC(=O)NC1CCCCC1)C2)NC1CC1 (configuration not stated) | -5% | 7.2e-08 | i | -1.5% | i
CCOC(=O)c1c(NC(=O)c2ccc(-n3cnnn3)cc2)sc2c1CCCC2 | 1%[11.4 µM] | 8.1e-09 | i | 19% | i
O=C(NCc1ccccc1)NC(=O)c1ccncc1 | 2% | 1e-09 | i | -3.2% | i
Cc1ccc(NC(=O)CC2Nc3ccccc3NC2=O)cc1Cl (configuration not stated) | -11% | · | · | 17% | ·
O=C(NCc1ccco1)c1cc(-c2ccc(Cl)cc2)on1 | -2% | 3.3e-08 | i | 0.7% | i
COc1ccc(-n2cnnc2SCC(=O)c2cc(C)n(Cc3cccs3)c2C)cc1 | ? | 5.8e-09 | i | 1.3% | i
CCCCN(CC)S(=O)(=O)N1CCC(C(=O)NCc2ccc(F)cc2)CC1 | -1% | 1.1e-08 | i | 0.8% | i
Cc1ccc(-c2csc(NC(=O)c3cccc(S(=O)(=O)N4CCN(C)CC4)c3)n2)cc1 | 26% | 1.3e-09 | i | -0.6% | i
O=C(CSc1nc2c(c(=O)n1-c1ccc(F)cc1)SCC2)Nc1ccc2c(c1)OCO2 | ? | 5.2e-09 | i | -1.7% | i
CCCS(=O)(=O)N1CCC(C(=O)c2cccc(C(F)(F)F)c2)CC1 | 5% | 7.2e-09 | i | -1.0% | i
Cc1ccc(CN2C(=O)CCC2C(=O)NCc2ccc(F)cc2)cc1 (configuration not stated) | 4% | 4.2e-08 | i | -1.2% | i
CCSc1nc2ccccc2n1S(=O)(=O)c1ccccc1 | -5% | · | · | 0.1% | ·
O=C(O)Cn1c(SCCOc2ccccc2)nc2ccccc21 | -15% | 2.2e-08 | i | -2.2% | i
CNC(=O)NC1CCCCc2sccc21 (configuration not stated) | 0% | · | · | 0.0% | ·
Cc1noc(C)c1COC(=O)CCN1c2ccccc2Sc2ccccc21 | · | 1.1e-09 | i | -1.3% | i
CC1CCc2nn(CC(=O)Nc3c(F)cc(F)cc3Br)cc2C1 (configuration not stated) | 12% | · | · | -3.3% | ·
Cc1ccc(C)c(C(=O)COC(=O)c2ccc(Br)o2)c1 | ? | · | · | -2.5% | ·
COc1ccc(N2Cc3ccccc3C2)cc1Cl | 8% | · | · | 0.2% | ·
CCC(=O)Nc1cc(OC)c(NC(=O)c2ccccc2)cc1OC | 2% | 5.1e-09 | i | -0.3% | i
CCCCOc1ccccc1C1C(C(=O)OC)=C(C)N(C)C(C)=C1C(=O)OC | ? | · | · | 0.0% | ·
COc1cc2c(cc1NC(=O)CC1SC(N3CCCC3)=NC1=O)oc1ccccc12 (configuration not stated) | -5% | 1.6e-08 | i | -0.7% | i
Cc1ccc(N2C(=O)CC3(CC4C=CC3C4)C2=O)cc1 (configuration not stated) | · | 1e-09 | i | · | i
CCOC(=O)c1ccc(NS(=O)(=O)c2c(C)n(C)c(=O)n(C)c2=O)cc1 | -2% | · | · | 0.5% | ·
COC(=O)C1=C(C)N=c2s/c(=C/c3ccoc3)c(=O)n2C1c1ccccc1 (configuration not stated) | 30% | 2e-09 | i | 4.5% | i
O=C(COc1cc(Cl)c(Cl)cc1Cl)Nn1cnnc1 | 4% | 1.7e-08 | i | 0.0% | i
O=C(Nn1cnc2ccccc2c1=O)C1CCCCC1 | 7% | 1e-09 | i | 1.1% | i
CCOc1ccc(CCNC(=O)CCn2cccc2)cc1OCC | 4% | · | · | -0.8% | ·
CC(C)(C)NC(=O)CSc1nnc(C2CC2)n1Cc1ccccc1 | 1% | 3e-08 | i | -2.2% | i
O=C1OC2CCC1(c1ccccc1)C2 (configuration not stated) | · | 1e-09 | i | · | i
Cn1c(Cn2c(=O)sc3ccccc32)nnc1SCc1ccccc1F | 30% | · | · | 3.0% | ·
c1ccc(-c2nc(N3CCCCCC3)nc(-n3ccnc3)n2)cc1 | 4µM* | 1.9e-08 | i | 1.8% | i
CCCC1COC(Cn2cncn2)(c2ccc(C)cc2)O1 (configuration not stated) | 20% | · | · | 0.7% | ·
CC(C)n1c(SC2C(=O)CC(C)(C)CC2=O)nc2c1c(=O)n(C)c(=O)n2C | 3% | 1e-09 | i | -0.6% | i
CCn1nnc(-c2ccccc2NC(=O)c2cccc(-n3cnnn3)c2)n1 | 5% | 1.7e-08 | i | -1.3% | i
CCn1cc(C(=O)NCc2ccc3c(c2)OCO3)c(=O)c2cc(F)c(N3CCN(C)CC3)cc21 | -10% | 1e-09 | i | 2.8% | i
CC(C)CCn1nnnc1C(c1ccccc1)N1CCN(C)CC1 (configuration not stated) | 3% | 3e-08 | i | -1.6% | i
O=c1c2ccccc2nnn1CSc1nnc(-c2cccs2)n1Cc1ccccc1 | ? | 1e-09 | i | -0.5% | i
Cn1c(C(=O)NCCCN2CCN(c3ccc(F)cc3)CC2)cc2c(=O)n(C)c3ccccc3c21 | -2% | · | · | -1.0% | ·
COc1cccc(-n2nnc3c(=O)n(Cc4ccc(C)cc4)cnc32)c1 | ? | 1e-09 | i | 0.2% | i
COc1c(S(=O)(=O)N2CCCCC2)ccc2c(S(=O)(=O)N3CCCCC3)cccc12 | -1% | 1.4e-08 | i | 1.3% | i
COc1ccccc1CN1C(=O)CN(C2CCCC2)C(=O)C1c1ccc(F)cc1 (configuration not stated) | ? | 5.9e-09 | i | -2.2% | i
CN(C)C(=O)c1ccc(-c2ccc3ncnc(N4CCC(C(=O)O)CC4)c3c2)cc1 | 5% | 4.6e-08 | i | 2.1% | i
C[C@@H]1/C=C\CC(=O)OC[C@H](C)C(=O)N[C@@H](Cc2ccccc2)C(=O)OC1 | 4%[11.4 µM] | · | · | 3.7%[11.5 µM] | ·
CC1=C(C(=O)Nc2ccccc2)C(c2ccco2)C(C#N)=C(SCC(=O)OC(C)C)N1 (configuration not stated) | ? | · | · | 3.2% | ·
CC(C)(C)NC(=O)C1CCC(C)(C(=O)O)C1(C)C (configuration not stated) | 12% | 3.3e-08 | i | 1.1% | i
